CDC25B-CDK2 inh: primary biochemical HTRF screen for blockers of M-phase inducer phosphatase 2 binding to CDK2/cyclin A; P30305+P24941; HTRF CDC25B-CDK2/CyclinA binding, anti-His/anti-Flag; stronger effect = higher value; z-score (concentration not given with the values); 0.72% of 94,000 active;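 also: score is relative to mean and SD of negative controls; strong numbers were not always called active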
HIV TAR-Tat: TAR RNA-Tat peptide displacers, HIV-1, primary screen, biochemical, FRET, FAM/TAMRA-labeled Tat; z-score (test concentration not listed); HIV-1 TAR RNA, Tat peptide displacement FRET; stronger effect = higher value; 0.6% of 100,000 active;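 also: score is relative to mean and SD of negative controls; some compounds called inactive have numbers as strong as hits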
* marks the source's active call; other numbers are inactive results; · = not tested or not shown.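 The calls were made as follows: active = z-score from 3 up in half or more of its runs; inactive = the rest.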

(1) CCc1nc(SCC(=O)c2ccc(O)c(O)c2)n[nH]1
(2) CCOC(=O)N/N=C(\C)CNC(C)=O
(3) O=C1c2ccccc2-c2ccc3s/c(=c4\sc5ccc6c7c(ccc4c57)C(=O)c4ccccc4-6)c4ccc1c2c34
(4) CC1(C(=O)NC2CCCC2)Cn2c(cc3ccccc32)C(=O)N1C1CCCCC1 (configuration not stated)
(5) CCOc1ccccc1OCc1nn2c(Cn3cnc4ccccc43)nnc2s1
(6) COCc1cc(=O)[nH]c(Nc2nc(C)c3cc(OC)ccc3n2)n1

compound no.,1,2,3,4,5,6
CDC25B-CDK2 inh,-2.9,-0.34,-2.6,·,-2,2
HIV TAR-Tat,0.33,·,·,3,-0.67,·

(7) O=C(CSc1nc2ccncc2[nH]1)Nc1ccc(Cl)cc1F
(8) Fc1ccc(-c2noc3ncnc(N4CCOCC4)c23)cc1
(9) C=CCNC(=O)C(=O)NCC(c1cccs1)S(=O)(=O)c1ccc(F)cc1 (configuration not stated)
(10) COc1ccc(-c2nnn3c2nc(N2CCOCC2)c2ccccc23)cc1
(11) O=C(Nc1ccccc1)c1ccccc1
(12) O=c1oc2cc3occ(-c4ccc(F)cc4)c3cc2c2ccccc12

compound no.,7,8,9,10,11,12
CDC25B-CDK2 inh,0.47,·,·,-2.5,0.78,-1.9
HIV TAR-Tat,1,-1.1,0.69,-0.6,·,1

(13) O=C(CSc1nc2c(sc3ccccc32)c(=O)n1CC1CCCO1)c1ccccc1 (configuration not stated)
(14) COc1ccc(OC)c(-c2oc3ccccc3c(=O)c2O)c1
(15) O=C(NC1CCCCC1)C1CCN(Cc2noc3ccccc23)CC1
(16) Cn1ncc2c(Nc3ccccc3F)ncnc21
(17) O=S1(=O)c2ccccc2S(=O)(=O)N1Cc1cccc(Cl)c1
(18) O=C(CC1CSc2ccccc2NC1=O)NC1CCCC1 (configuration not stated)

compound no.,13,14,15,16,17,18
CDC25B-CDK2 inh,-2.5,-0.23,·,·,·,·
HIV TAR-Tat,·,0.71,0.54,2.6,0.51,1.3

(19) N#Cc1nccnc1Sc1ccc(Cl)cc1
(20) CCOc1ccc(-n2c(=O)[nH]c3c(C(N)=O)nc(-c4ccc(Br)cc4)nc32)cc1
(21) CC1CCN(S(=O)(=O)c2ccc3c(c2)N(CC(=O)N2CCC4(CC2)OCCO4)C(=O)CO3)CC1
(22) Cc1c(C(=O)NC(C)C)sc2ncnc(N3CCN(C)CC3)c12
(23) CCOC(=O)c1c(S(=O)(=O)N2CCCC(C(=O)N3CCCC3)C2)c(C)n(C)c1C (configuration not stated)
(24) O=C(Nc1nccs1)c1cc(-c2ccc(Cl)cc2)on1

compound no.,19,20,21,22,23,24
CDC25B-CDK2 inh,-1.3,·,-1.8,·,·,-1.4
HIV TAR-Tat,·,0.84,·,1.7,2.7,15

(25) CN(C)CCNc1cc(N(C)C)c2noc3c2c1C(=O)c1ccccc1-3
(26) CC1CCCC(C)N1CCCNC(=O)C1CCN(C(=O)c2cc3sccc3n2C)CC1 (configuration not stated)
(27) Cc1cc(-c2ccc(C)c(S(=O)(=O)Nc3ccc(C(C)C)cc3)c2)on1
(28) CC(C)c1ccc(-c2c(N(C)Cc3ccco3)c(=O)c2=O)cc1
(29) O=C(Nc1ccc(F)cc1F)N1CCC2(CC1)Nc1ccccc1-n1cccc12
(30) CCOC(=O)Cn1ncc2c3ccccc3n(CC(=O)OCC)c2c1=O

compound no.,25,26,27,28,29,30
CDC25B-CDK2 inh,-3.6,-2.5,·,·,·,-1.9
HIV TAR-Tat,-1.1,-1.2,0.2,1.4,1,0.58

(31) Cc1[nH]nc(-c2ccc(S(=O)(=O)Nc3cccc(Cl)c3)s2)c1C
(32) NC(=O)c1sc2nc3c(c(-c4ccc(Cl)cc4)c2c1N)CCCCC3
(33) CCN(CC)C(=O)COCc1cc(-c2ccc3c(c2)OCO3)on1
(34) O=C(Nc1cccc(Cl)c1)N1CCOc2ccccc21
(35) COc1ccc(C)cc1NS(=O)(=O)c1cccs1
(36) COc1ccc(-c2nnc(SCC(=O)c3ccc(F)cc3)n2C)cc1OC

compound no.,31,32,33,34,35,36
CDC25B-CDK2 inh,·,-2.4,·,·,0.6,·
HIV TAR-Tat,0.57,·,2.4,1.6,·,1.4

Exported bar-delimited: part of the list above
item | SMILES | CDC25B-CDK2 inh | HIV TAR-Tat
18 | O=C(CC1CSc2ccccc2NC1=O)NC1CCCC1 (configuration not stated) | · | 1.3
19 | N#Cc1nccnc1Sc1ccc(Cl)cc1 | -1.3 | ·
20 | CCOc1ccc(-n2c(=O)[nH]c3c(C(N)=O)nc(-c4ccc(Br)cc4)nc32)cc1 | · | 0.84
21 | CC1CCN(S(=O)(=O)c2ccc3c(c2)N(CC(=O)N2CCC4(CC2)OCCO4)C(=O)CO3)CC1 | -1.8 | ·
22 | Cc1c(C(=O)NC(C)C)sc2ncnc(N3CCN(C)CC3)c12 | · | 1.7
23 | CCOC(=O)c1c(S(=O)(=O)N2CCCC(C(=O)N3CCCC3)C2)c(C)n(C)c1C (configuration not stated) | · | 2.7
24 | O=C(Nc1nccs1)c1cc(-c2ccc(Cl)cc2)on1 | -1.4 | 15
25 | CN(C)CCNc1cc(N(C)C)c2noc3c2c1C(=O)c1ccccc1-3 | -3.6 | -1.1
26 | CC1CCCC(C)N1CCCNC(=O)C1CCN(C(=O)c2cc3sccc3n2C)CC1 (configuration not stated) | -2.5 | -1.2
27 | Cc1cc(-c2ccc(C)c(S(=O)(=O)Nc3ccc(C(C)C)cc3)c2)on1 | · | 0.2
28 | CC(C)c1ccc(-c2c(N(C)Cc3ccco3)c(=O)c2=O)cc1 | · | 1.4
29 | O=C(Nc1ccc(F)cc1F)N1CCC2(CC1)Nc1ccccc1-n1cccc12 | · | 1
30 | CCOC(=O)Cn1ncc2c3ccccc3n(CC(=O)OCC)c2c1=O | -1.9 | 0.58
31 | Cc1[nH]nc(-c2ccc(S(=O)(=O)Nc3cccc(Cl)c3)s2)c1C | · | 0.57
32 | NC(=O)c1sc2nc3c(c(-c4ccc(Cl)cc4)c2c1N)CCCCC3 | -2.4 | ·
33 | CCN(CC)C(=O)COCc1cc(-c2ccc3c(c2)OCO3)on1 | · | 2.4

Further entries:
(37) CCOC(=O)C(=O)N1N=C(C2CCCCC2)CC1(O)C(F)(F)F (configuration not stated)
(38) CCOC(=O)N1CCN(c2ccc3nncn3n2)CC1
(39) Cc1ccc(Cn2c(CO)cnc2SCc2ccccc2Cl)cc1
(40) Cc1nc(-c2ccc(F)cc2)sc1-c1ccc(SCC(=O)Nc2nccs2)nn1
(41) Cc1c(C(=O)O)oc2c1-c1nn(Cc3ccccc3Cl)cc1CC2
(42) COc1ccc(C(=O)c2cn(Cc3ccc(F)cc3)c3cc4c(cc3c2=O)OCCO4)cc1

compound no.,37,38,39,40,41,42
CDC25B-CDK2 inh,-0.84,-1.2,·,·,-0.52,-0.47
HIV TAR-Tat,·,1.6,0.97,1.6,-0.34,-2

(43) CC(C)CCNC(=O)CCc1nnc2ccc(N3CCOCC3)nn12
(44) Cc1cc(C)n(-c2nnc(Nc3ccc(N4CCOCC4)cc3)c3ccccc23)n1
(45) O=C(NCCCN1CCCC1)c1cc2cc3ccc(Cl)cc3nc2o1
(46) CCCC(=O)Nc1ccc2nc(SCc3cc(=O)n4nc(C5CC5)sc4n3)sc2c1
(47) NC1(N)OC(CN2C(=O)c3ccccc3C2=O)CS1 (configuration not stated)
(48) Fc1ccc(CSCc2nc3ccccc3[nH]2)cc1

compound no.,43,44,45,46,47,48
CDC25B-CDK2 inh,·,·,-0.98,·,-0.28,-1.5
HIV TAR-Tat,-0.82,1.2,·,1.1,·,2.5

(49) Cc1cc2c3c(c1)C1C=CCC1C(C(=O)O)N3CC1CC=CC21 (configuration not stated)
(50) O=C1CSc2nc3ccccc3n21
(51) COc1cc(Nc2nc(-c3ccc(C)cc3)cs2)c(OC)cc1Cl
(52) CC(C)CCn1c(=O)c2ccccc2n2c(CCC(=O)N3CCN(C(=O)c4ccco4)CC3)nnc12
(53) Cc1nnc2c3ccccc3nc(Nc3ccc(F)cc3F)n12
(54) CC(C)(CC(=O)O)CC(=O)Nc1ccc2c(c1)OCO2

compound no.,49,50,51,52,53,54
CDC25B-CDK2 inh,-1.2,-1,0.42,-1.3,·,-2.9
HIV TAR-Tat,·,·,·,1.1,0.34,0.52

(55) O=C(Cn1ncc2c([nH]c3ccccc32)c1=O)N1CCCc2ccccc21
(56) Cc1ccc(Oc2ncnc3c2oc2ccccc23)cc1
(57) C=CCN=C1CC(C)(C)CC(=O)/C1=C(\O)CCC(=O)OC
(58) Cn1nc(C(=O)Nc2cccc(Cl)c2)c2c1-c1ccsc1CC2
(59) O=C(NCc1ccc2c(c1)OCO2)Nc1ccc(OCc2ccccc2)cc1
(60) Cc1ccc2oc(-c3cccc(N4C(=O)c5cccnc5C4=O)c3)nc2c1

compound no.,55,56,57,58,59,60
CDC25B-CDK2 inh,·,·,0.93,·,-1.7,16*
HIV TAR-Tat,1.4,1.2,-0.71,-0.57,·,0.74

(61) CCN1CCSc2ccc(C(=O)NCC3CCCN3CC)cc21 (configuration not stated)
(62) COCCN(Cc1ccc(C)c(Br)c1)S(=O)(=O)c1cc(-c2cc(C)no2)ccc1C
(63) Cn1cc(NC(=O)NCC2CCCO2)c2ccccc2c1=O (configuration not stated)
(64) Cc1onc(C(=O)NC(C)(C)C)c1[N+](=O)[O-]
(65) CCc1nn(CCCC(=O)NCCC2=CCCCC2)c(=O)c2cc3occc3n12
(66) CCCCCCCn1c(CN2CCN(CC)CC2)nc2c1c(=O)n(C)c(=O)n2C

compound no.,61,62,63,64,65,66
CDC25B-CDK2 inh,-2.5,·,·,-2.8,-0.12,-1.2
HIV TAR-Tat,-0.41,1,-1.4,-0.16,0.19,1.4

(67) COc1cc(C2C(C#N)=C(N)OC3=C2C(=O)CCC3)cc(Br)c1OC (configuration not stated)
(68) O=C(c1ccc2c(=O)n3c(nc2c1)CCCCC3)N1CCc2ccccc21
(69) Cc1cccn2cc(-c3ccc(F)cc3)cc12
(70) Cc1nc2ccccn2c(=O)c1NC(=O)c1ccc(Cl)cc1
(71) COC(=O)c1sc2cccc(F)c2c1S(=O)(=O)Nc1ccc2c(c1)OCO2
(72) O=c1[nH]c(SC/C=C/c2ccccc2)nc2c1cnn2-c1ccccc1

compound no.,67,68,69,70,71,72
CDC25B-CDK2 inh,-0.19,-2.1,-0.23,·,·,·
HIV TAR-Tat,·,1.9,-7.5,1.9,0.97,0.95

(73) COc1cccc(OCc2nc(-c3ccc(Cl)cc3)no2)c1
(74) CN1C(=O)C(C)(C)c2cc(S(=O)(=O)N(Cc3ccco3)C3CCCCC3)ccc21
(75) CN1C(=O)Cc2cc(S(=O)(=O)CCC(=O)Nc3cccc(Br)c3)ccc21
(76) CSc1noc(-c2ccc(S(=O)(=O)NCc3ccccc3)s2)c1C#N
(77) Cn1c2ccccc2c2cnn(CC(=O)NCCCN3CCN(C4CCCCC4)CC3)c(=O)c21
(78) O=C1CC(c2ccccc2)CC2=C1C(c1ccc3c(c1)OCO3)Nc1ccccc1N2 (configuration not stated)

compound no.,73,74,75,76,77,78
CDC25B-CDK2 inh,-0.38,·,·,-1.5,-0.88,-0.76
HIV TAR-Tat,-0.15,0.28,0.27,·,-0.62,1.4

(79) COc1ccc(OC)c(Nc2nc(-c3ccccc3O)nc3ccccc23)c1
(80) O=S(=O)(c1cc(-c2noc(C3CC3)n2)cs1)N1CCN(c2ccccc2F)CC1
(81) CC1(C)CC(=O)C2=C(C1)Nc1ccccc1N(C(=O)Nc1ccccc1)C2c1ccco1 (configuration not stated)
(82) COc1ccccc1-n1c(=O)[nH]c2c(C(N)=O)nc(C3CCCCC3)nc21
(83) Cc1noc(C)c1C(=O)Sc1nccc(C(F)(F)F)n1
(84) Nc1nc(NCc2ccccc2)nc(NCC2CCCO2)c1[N+](=O)[O-] (configuration not stated)

compound no.,79,80,81,82,83,84
CDC25B-CDK2 inh,-15,·,·,·,-1,·
HIV TAR-Tat,0.83,1.1,0.53,1.3,·,0.37

(85) CNC(=O)c1c(NC(=O)Cc2coc3c(C)c(C)ccc23)sc2c1CCCC2
(86) Cc1ccc(CNC(=O)c2nc(-c3cn(-c4ccc(Br)cc4)nc3C)no2)o1
(87) O=C(c1cc2sc3ccccc3c2s1)N1CCCCC1
(88) NC1=NC(=O)C2(COC(c3cccnc3)OC2)S1 (configuration not stated)
(89) Cc1ccc(S(=O)(=O)N2CCN(S(=O)(=O)c3ccc(C)cc3)C2c2ccc(N(C)C)cc2)cc1
(90) Oc1c(Cl)cc(Cl)cc1/C=N/NCCc1ccccn1

compound no.,85,86,87,88,89,90
CDC25B-CDK2 inh,-1.6,·,1.1,-2.2,-0.19,-0.6
HIV TAR-Tat,0.95,-0.87,·,·,1.1,·

(91) CCSc1ccc2nnc(-c3ccc(Cl)cc3)n2n1
(92) CC(=O)c1cc(C#N)c(=O)[nH]c1C
(93) Cc1c(C(=O)NCCN(C)C)sc2nc3n(c(=O)c12)CCCCC3
(94) Cc1ccc(C)c2[nH]c(=O)c(CCNC(=O)CCC3CCCC3)cc12
(95) NC(=O)c1c(NC(=O)c2cc(-c3cccc(O)c3)on2)sc2c1CCCC2
(96) C=C(C)CN1c2ccccc2Sc2ccccc21

compound no.,91,92,93,94,95,96
CDC25B-CDK2 inh,-1.8,-1.2,·,-1.7,2.9,-2.7
HIV TAR-Tat,·,·,1,·,-0.91,1.2
